Mtb hypoxia rep: PubChem AID 1159583 | M. tuberculosis hypoxia-regulated fluorescent reporter, fluorescence | fluorescence inhibition, % (concentration not given with the values) | 0.1% of 300,000 active;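 active = 35 to 45% if threefold the growth effect, above 45% if 1.5-fold the growth effect; inactive = the rest, general growth blockers included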;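 note: wells of about 50 µL received 100 nL stock; 0% = vehicle wells and 100% = reference inhibitor wells; whole bacteria with a GFP reporter of the hypoxia response; strong numbers were not always called active; many hits fall short of the cut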
RN4220 kill: growth inhibition of S. aureus RN4220, primary screen, OD600; 16 h; inhibition, % (concentration not given with the values); 0.33% of 330,000 active;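 active = z-score of -3 or lower and OD600 up to 0.18 on both plates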;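 note: plate controls were untreated cells for no effect and reference antibiotic for full effect; stock transfer was 100 nL into about 80 µL; one replicate is shown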
ugtP null kill: growth inhibition of ugtP-null S. aureus, primary screen, RN4220 ugtP deletion, OD600; 16 h; some inactives read as strong as hits; growth inhibition, % (test concentration not listed); 0.54% of 330,000 active; AID 1259309, 2017;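 active = z-score under -3 and OD600 up to 0.15 on both plates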;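 note: plate controls were untreated wells for no effect and antibiotic for full effect; wells of about 80 µL received 100 nL stock; the first replicate is given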
BJeLR lethal: MLPCN primary cell-based screen for lethality selective to Ras in HRASV12 cells. BJeLR (HRASV12) viability, CellTiter-Glo ATP luminescence, 48 h; reference of the scale not given here. inhibition, % (test concentration not listed). 0.17% of 300,000 active;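 active = replicate mean above 50%; inconclusive = above 50% but judged a plate artefact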;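 note: 50 nL library stock added to about 25 µL; numbers are from one replicate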
PrP 5UTR inh: inhibition of PrP 5' UTR reporter expression; inhibition, % (no concentration beside the values); 0.35% of 340,000 active; cell-based PrP 5' UTR mRNA reporter, plate reader; AID 488862, 2010;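 active = every replicate at 50% or more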;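 note: 0 = median of the neutral control wells; tested in H4 reporter cells; numbers are from one replicate; inactives centre near -14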
Bead autofluor: compound fluorescence in toxin protease inhibitor counterscreen; AID 624483; fluorescence intensity (concentration not given with the values); 3.1% of 360,000 active; compound autofluorescence counterscreen, microsphere flow cytometry; stronger effect = higher value;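 active = at least 3 SD above the mean of all compounds, about 16000 in these data; inconclusive = too few beads counted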;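 note: 100 nL of 1 mM stock went into each well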
Mtb hypoxia rep growth: recorded beside Mtb hypoxia rep, whose call it bears; growth inhibition, %; measured here: M. tuberculosis growth (absorbance);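 0% = vehicle and 100% = reference antibiotic; read after six days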
The depositor's hits bear a star; ? = inconclusive; nt = no result given.

Letter code: A = Mtb hypoxia rep; B = Mtb hypoxia rep growth; C = RN4220 kill; D = ugtP null kill; E = BJeLR lethal; F = PrP 5UTR inh; G = Bead autofluor
CCOC(=O)c1c(NC(=O)C(F)(OC)C(F)(F)F)sc(C(=O)N2CCCCC2)c1C (configuration not stated)
  A: -3	B: 3	C: 3.4	D: 7	E: -16	F: -16	G: 3953

O=C(NCc1cccnc1)c1ccc(-c2ccc(Cl)cc2)o1
  A: 4	B: 8	C: -4.0	D: 20	E: 6	F: -14	G: 2519

COc1ccc(C2C(=O)N(C3CCCCC3)CC(=O)N2Cc2ccc3c(c2)OCO3)cc1 (configuration not stated)
  A: 1	B: 1	C: 0.9	D: 4	E: 5	F: -6	G: 15747

CC(C)CCn1cnc2c(cnn2-c2ccc(Cl)cc2)c1=O
  A: 9	B: 6	C: 10	D: 4	E: -3	F: -21	G: 2536

Cc1ccccc1C(=O)NCCN1CCOCC1
  A: -2	B: -1	C: 3.7	D: 9	E: 4	F: -3	G: 4168

O=C(CN1CCN(c2ccc(O)cc2)CC1)Nc1cc(S(=O)(=O)N2CCCC2)ccc1Cl
  A: 16	B: 7	C: 9.5	D: -2	E: -3	F: 0	G: 3193

CCCCn1nnnc1SCC(=O)Nc1cccc(C)c1
  A: -13	B: -7	C: -1.5	D: 0	E: -6	F: 5	G: 5829

Cc1ccsc1/C=N/NC(=O)c1cccc(S(=O)(=O)Nc2ccccc2Cl)c1
  A: nt	B: nt	C: nt	D: nt	E: -12	F: -18	G: 1935

Cc1ccc(-c2csc(NC(=O)CSc3nc(C)cc(=O)[nH]3)n2)cc1
  A: 3	B: 16	C: -3.4	D: 50	E: 8	F: nt	G: nt

C#CC(C)OC(=O)Nc1cnccc1C(F)(F)F (configuration not stated)
  A: 5	B: 6	C: 1.5	D: 8	E: -2	F: -49	G: 5417

Cc1ccc2oc(C(=O)NCc3ncc(C)[nH]3)c(C)c2c1
  A: 4	B: 1	C: 0.6	D: -2	E: 9	F: -13	G: 5672

C/C(=C/C(=O)N1CCN(C)CC1)C(=O)O
  A: 12	B: -1	C: 3.1	D: 6	E: 4	F: -8	G: 2799

COc1ccc(-n2c(N)c(Br)c(=O)[nH]c2=O)cc1
  A: 9	B: 4	C: 2.2	D: 7	E: 1	F: -23	G: 13301

Cn1c(CCNC(=O)c2ccc(Cl)cc2)n[nH]c1=S
  A: 7	B: 12	C: 2.5	D: 4	E: 6	F: -8	G: 2471

CN1CCCC(CC2Oc3ccccc3Sc3ccccc32)C1 (configuration not stated)
  A: 10	B: 4	C: 0.7	D: 56	E: -1	F: -22	G: 2241

O=C(N=C1SC2CS(=O)(=O)CC2N1CCc1ccc(F)cc1)C1CCCCC1 (configuration not stated)
  A: 3	B: 5	C: -0.8	D: -3	E: 3	F: -23	G: 5183

CS(=O)(=O)c1ccc(S(=O)CC(=O)OCc2ccccc2)c([N+](=O)[O-])c1 (configuration not stated)
  A: nt	B: nt	C: nt	D: nt	E: -6	F: -10	G: 2133

Cc1ccc(S(=O)(=O)N2CCOCC2)cc1C(=O)Nc1cccc(C(=O)NC2CC2)c1
  A: 5	B: 6	C: 4.0	D: 7	E: nt	F: nt	G: ?

Cn1c(=N)n(CC(=O)c2ccc(Br)cc2)c2ccccc21
  A: -8	B: 4	C: 4.5	D: -16	E: 21	F: -13	G: 4414

COc1ccc(C(=O)N/N=C/c2ccc(OC)c(COc3ccccc3)c2)cc1
  A: nt	B: nt	C: nt	D: nt	E: 2	F: 2	G: 4246

Cc1ccc(OCC(=O)Nc2ccc3c(c2)C(=O)NC3=O)c(C)c1
  A: 7	B: -2	C: 2.6	D: 0	E: -1	F: -41	G: 5490

C=C(C)CN(CC)C(=O)CSc1ccc(S(=O)(=O)N2CCN(C)CC2)cn1
  A: -5	B: 3	C: 2.8	D: -1	E: nt	F: -34	G: 5764

O=C(NCC(c1ccco1)N1CCCC1)c1cn(Cc2ccccc2)nc1-c1ccccc1 (configuration not stated)
  A: 23	B: 3	C: -1.5	D: 1	E: nt	F: -2	G: 10515

N#Cc1c(-c2ccccc2)ccnc1Oc1ccccc1
  A: nt	B: nt	C: 0.3	D: 3	E: -5	F: -24	G: 2464

Nn1c(-c2ccc(F)cc2)nc2ccccc2c1=O
  A: -7	B: -2	C: -2.5	D: -8	E: 2	F: -31	G: 3604

For convenience, part of the list above.
Letter code: A = Mtb hypoxia rep; B = Mtb hypoxia rep growth; C = RN4220 kill; D = ugtP null kill; E = BJeLR lethal; F = PrP 5UTR inh; G = Bead autofluor
O=C(CN1CCN(c2ccc(O)cc2)CC1)Nc1cc(S(=O)(=O)N2CCCC2)ccc1Cl
  A: 16	B: 7	C: 9.5	D: -2	E: -3	F: 0	G: 3193

CCCCn1nnnc1SCC(=O)Nc1cccc(C)c1
  A: -13	B: -7	C: -1.5	D: 0	E: -6	F: 5	G: 5829

Whole records from above. Order of screens: Mtb hypoxia rep | Mtb hypoxia rep growth | RN4220 kill | ugtP null kill | BJeLR lethal | PrP 5UTR inh | Bead autofluor
Nn1c(-c2ccc(F)cc2)nc2ccccc2c1=O in the list: -7 | -2 | -2.5 | -8 | 2 | -31 | 3604
Cc1ccc(OCC(=O)Nc2ccc3c(c2)C(=O)NC3=O)c(C)c1 in the list: 7 | -2 | 2.6 | 0 | -1 | -41 | 5490

Additional records follow.
Letter code: A = Mtb hypoxia rep; B = Mtb hypoxia rep growth; C = RN4220 kill; D = ugtP null kill; E = BJeLR lethal; F = PrP 5UTR inh; G = Bead autofluor
Cc1ccc(C(=O)NCC(=O)OCC(=O)Nc2cc(S(=O)(=O)N3CCOCC3)ccc2Cl)s1
  A: 0	B: 0	C: 5.0	D: 4	E: nt	F: -18	G: 6536

Nc1c(C(=O)Nc2ccc3c(c2)OCCO3)nnn1Cc1cccc(Br)c1
  A: 9	B: 0	C: 3.5	D: 3	E: 9	F: -70	G: 5740

CCOc1ccc(-n2c(=S)sc3c(=O)[nH]c(SCC(=O)N4CCC(C)CC4)nc32)cc1
  A: 6	B: 8	C: 11	D: -10	E: 0	F: -13	G: 6158

Cc1cc(C=NNc2nc(N)ncc2[N+](=O)[O-])c(C)n1-c1cccc(C(F)(F)F)c1
  A: 13	B: 8	C: 4.8	D: 7	E: nt	F: nt	G: nt

Cc1cc(NC(=O)COC(=O)C2CC(=O)N(c3cccc(Cl)c3)C2)no1 (configuration not stated)
  A: 6	B: 9	C: 3.3	D: 6	E: 8	F: -24	G: 3499

CCOc1cc(S(=O)(=O)Nc2ccc(Cl)cn2)ccc1Cl
  A: nt	B: nt	C: 2.3	D: -1	E: -5	F: -20	G: 3910

CCN(CC)c1ccc(NC(=O)c2ccc(=O)[nH]c2)cc1S(=O)(=O)Nc1ccc(OC)cc1
  A: -7	B: 3	C: 1.0	D: -4	E: -3	F: -7	G: ?

N=C1C(c2ccccc2)=C(O)C2CCc3ccccc3N12 (configuration not stated)
  A: 12	B: 15	C: 6.0	D: 2	E: -2	F: -26	G: 6080

O=C(CN1CCN(Cc2ccc(F)cc2)CC1)NCc1ccccc1
  A: 9	B: -2	C: 5.5	D: 19	E: 1	F: -29	G: 3917

O=C(C=CNc1ccc(F)cc1)c1ccco1
  A: 17	B: 7	C: 13	D: -12	E: nt	F: nt	G: nt

O=C(CN1CCN(c2ncccn2)CC1)N(Cc1ccccc1)c1ccc(F)cc1
  A: 8	B: 9	C: 2.8	D: 18	E: 2	F: -5	G: 8935

Cc1cc(-n2nc(C)cc2C)nc(NS(=O)(=O)c2ccccc2Cl)n1
  A: 0	B: 5	C: -2.4	D: -8	E: -12	F: -50	G: 8572

COc1ccc(-c2c(NC(=O)c3ccco3)oc3ccccc3c2=O)cc1OC
  A: nt	B: nt	C: 0.4	D: 1	E: -7	F: -6	G: 4327

O=C(CCN1CCOCC1)NNC(=O)/C(=C/c1ccccc1)NC(=O)c1ccccc1
  A: -2	B: 12	C: -2.1	D: 1	E: 4	F: -25	G: 4572

CCOC(=O)C1CCCN(C(=O)N2CCOCC2)C1 (configuration not stated)
  A: 9	B: 8	C: 6.3	D: -7	E: -9	F: -12	G: 19919*

Cc1ccc(C(=O)NC(=S)NNS(=O)(=O)c2ccccc2)cc1
  A: -19	B: -16	C: 7.4	D: 3	E: -3	F: -8	G: 2110

Cc1occc1C(=O)NN=Cc1sc(N2CCOCC2)nc1-c1ccccc1
  A: -2	B: 1	C: 55	D: 45	E: nt	F: nt	G: nt

Cc1ccc(NC(=O)C(C)N2C(=O)c3ccccc3C2=O)c(C)c1 (configuration not stated)
  A: -6	B: 4	C: 3.8	D: 13	E: -4	F: -12	G: 3124

COc1ccc(CN2CCNC(=O)C2CC(=O)NCc2csc(C)n2)c(F)c1 (configuration not stated)
  A: 0	B: 4	C: 0.5	D: 3	E: 1	F: -9	G: 5052

COCCn1c(=S)[nH]c2cc(C(=O)N3CCC(C(N)=O)(N4CCCCC4)CC3)ccc2c1=O
  A: 6	B: 8	C: 1.7	D: 0	E: nt	F: -9	G: 22116*

CCN(CC)S(=O)(=O)c1cccc(NC(=O)CN(C)C2CCCCC2)c1
  A: 10	B: 1	C: 1.3	D: 5	E: 22	F: 4	G: 4406

COc1cccc(C(=O)N2CCCc3ccccc32)c1
  A: 4	B: 8	C: 5.3	D: 5	E: -3	F: -7	G: 17528*

COc1ccc(C(C)(C)C)cc1NC(=O)c1cc(S(=O)(=O)N(C)C)ccc1N1CCCC1
  A: 4	B: 2	C: 2.9	D: 13	E: 0	F: -59	G: 7711

CC(=O)N1N=C(c2cccnc2)CC1c1ccccc1O (configuration not stated)
  A: 1	B: -1	C: 5.1	D: -1	E: -16	F: -17	G: 4866

OC(COC(c1ccc(F)cc1)c1ccc(F)cc1)CN1CCc2ccccc2C1 (configuration not stated)
  A: nt	B: nt	C: -5.8	D: 3	E: -3	F: -18	G: 2091

O=C(COC(=O)C(O)c1ccccc1)c1ccc2c(c1)OCCO2 (configuration not stated)
  A: 14	B: 8	C: -14	D: -2	E: -8	F: -18	G: 3259

Cc1ccc(NC(=O)CN2C(=O)NC3(CCCc4ccccc43)C2=O)c(C)c1 (configuration not stated)
  A: -4	B: 10	C: -0.4	D: -5	E: nt	F: -14	G: 5637

CC(=O)OC1C2C(CC(C)C3CCC(=O)[C@]31C)OC(=O)C2C (some centres not stated)
  A: 1	B: 0	C: 8.7	D: -1	E: nt	F: nt	G: nt

C=C(c1cn(C(C)=O)c2ccccc12)c1cn(C(C)=O)c2ccccc12
  A: 1	B: 2	C: -5.2	D: 12	E: nt	F: -8	G: 3873

CCCNC(=O)COC(=O)C1CCN(S(=O)(=O)c2ccc3c(c2)OCCO3)CC1
  A: 12	B: -4	C: 3.9	D: 7	E: -4	F: -25	G: 5153

O=C(CCCC(=O)OCC(=O)c1ccc(Cl)cc1Cl)Nc1cc(C(F)(F)F)ccc1Cl
  A: nt	B: nt	C: -2.9	D: 0	E: 4	F: -30	G: 2656

CCOC(=O)C1C(=O)NC(N2CCN(CC)CC2)=NC1c1ccccc1 (configuration not stated)
  A: 4	B: -2	C: 0.9	D: 2	E: 0	F: -28	G: 8933

Cc1ccc(-c2cc(C(F)F)nc(S(C)(=O)=O)n2)cc1
  A: 13	B: 8	C: 0.3	D: 3	E: 2	F: -22	G: 5049

CCOc1cc(C(=O)Nc2ccc3c(c2)OCO3)ccc1OC(F)F
  A: 8	B: 8	C: 5.7	D: 2	E: -7	F: -35	G: 11395

Cc1cccc(C(C)C)c1NC(=O)C(C)OC(=O)Cn1cnc2c1c(=O)n(C)c(=O)n2C (configuration not stated)
  A: 13	B: 4	C: 2.3	D: 5	E: 2	F: -9	G: ?

Cc1csc(Nc2ccc(C(=O)O)cc2)n1
  A: 3	B: 10	C: 2.1	D: 1	E: -2	F: 14	G: 4482

CC(=O)N1C(=O)C2(C(C#N)=C(N)Oc3c2c(C)nn3-c2ccccc2)c2ccccc21 (configuration not stated)
  A: 16	B: 9	C: 11	D: -12	E: 9	F: -13	G: 2849

CCOc1ccc(C(=O)Nc2ccc(N3CCN(C)CC3)cc2)cc1
  A: 18	B: 9	C: 6.1	D: 11	E: 13	F: -50	G: 3583

COc1ccccc1NC(=O)NCCCCc1ccccc1
  A: 8	B: 8	C: -4.7	D: -1	E: 6	F: -5	G: nt

COc1ccccc1-c1c(C)nn2c(C)c(C(C)=O)cnc12
  A: nt	B: nt	C: 3.2	D: 5	E: -8	F: -16	G: 2564

O=C(c1nc2ccc(Cl)cn2c1CNCCn1ccnc1)N1CCCCCCC1
  A: 5	B: 2	C: 5.6	D: 9	E: 2	F: -13	G: 3078

CCc1nnc(NC(=O)c2cccc(S(=O)(=O)N3CCN(c4ccccc4)CC3)c2)s1
  A: nt	B: nt	C: 5.6	D: -2	E: -4	F: -4	G: 2727
